# Bioassay records from PubChem.
# D2 potentiator: human D2 receptor positive allosteric modulation; potentiation, % (no concentration beside the values); DiscoveRx D2 beta-arrestin cells, luminescence, 90 min; 100% = 57 uM dopamine signal; 360,000 tested, 0.23% active; P14416; active = potentiation of 50% or more; inconclusive = 30% to 50%; inactive = 30% or less;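 note: compound concentration not given in the record; tested on top of an EC20 dose of dopamine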
#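 PathHunter D2 cells, attached overnight at 37 deg C, received compound in DMSO plus dopamine at EC20 (50 nM final) for 90 min at 37 deg C. Beta-arrestin recruitment was read as luminescence after 1 h with detection reagent at ambient temperature.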
# D2 agonist: activates the human D2 dopamine receptor; activation, % (concentration not given with the values); DiscoveRx PathHunter D2 beta-arrestin, luminescence, 90 min; 100% = 57 uM dopamine signal; AID 624465; 360,000 tested, 0.084% active; in the data active = activation above about 40%; inconclusive = about 15% to 40%; inactive = below about 15%; note: compound concentration not given in the record; the text of the record calls up to 30% inactive
#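 DiscoveRx PathHunter D2 beta-arrestin cells (2,100/well) attached overnight, then compound-stimulated 90 min at 37 C in HBSS/10 mM HEPES/0.1% Tween-20 buffer; beta-galactosidase complementation read by luminescence after 1 h at ambient temperature. Dopamine 57 uM final (EC100) as control.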
# Six1-Eya2 inh: inhibitors of human Six1/Eya2 interaction; Q15475+O00167; AlphaScreen GST-Six1/His-Eya2 binding, biochemical; hits give low values; control for the full effect not named in the record; activity change, % (concentration not given with the values); 360,000 tested, 0.56% active; AID 651725; in the data active = activity change below about -65%; inconclusive = about -30% to -65%; inactive = above about -30%; note: % is set by controls: 0 for no effect and ±100 for the full control effect
# Target sequence (O00167 whole entry, looked up): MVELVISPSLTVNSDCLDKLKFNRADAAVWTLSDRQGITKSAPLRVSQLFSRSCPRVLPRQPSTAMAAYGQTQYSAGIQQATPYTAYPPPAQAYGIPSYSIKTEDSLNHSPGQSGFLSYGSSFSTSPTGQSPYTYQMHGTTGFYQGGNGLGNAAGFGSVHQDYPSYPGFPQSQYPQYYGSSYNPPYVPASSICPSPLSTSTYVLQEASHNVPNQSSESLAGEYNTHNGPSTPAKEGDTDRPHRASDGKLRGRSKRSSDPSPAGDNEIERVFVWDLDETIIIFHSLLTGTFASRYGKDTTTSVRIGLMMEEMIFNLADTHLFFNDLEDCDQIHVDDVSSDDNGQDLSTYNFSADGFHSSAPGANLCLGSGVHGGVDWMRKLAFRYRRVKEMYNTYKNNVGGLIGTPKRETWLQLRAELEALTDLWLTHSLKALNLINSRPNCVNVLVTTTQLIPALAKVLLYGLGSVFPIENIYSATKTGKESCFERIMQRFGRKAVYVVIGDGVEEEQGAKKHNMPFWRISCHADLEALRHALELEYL
# Target sequence (Q15475 whole entry, looked up): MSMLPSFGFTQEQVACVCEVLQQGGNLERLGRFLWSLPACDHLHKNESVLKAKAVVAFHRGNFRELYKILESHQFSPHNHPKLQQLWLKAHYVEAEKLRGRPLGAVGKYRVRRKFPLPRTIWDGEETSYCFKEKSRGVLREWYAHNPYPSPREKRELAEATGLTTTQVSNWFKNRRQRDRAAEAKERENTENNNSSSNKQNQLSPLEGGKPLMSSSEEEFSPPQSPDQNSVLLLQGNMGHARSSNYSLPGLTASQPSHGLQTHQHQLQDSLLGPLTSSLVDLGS
#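 AlphaScreen luminescence read after one hour at 37 °C in darkness. Pin-transferred compounds met GST-Six1 and His-Eya2 protein (5X stock 250 nM/500 nM) plus glutathione donor and Ni-chelate acceptor beads (5X, 50 ug/mL).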
# TRPML1 inh: blocks the human TRPML1 channel; 390,000 tested, 0.02% active; AID 624415; activity change, negative = inhibition, % (concentration not given with the values); Q9GZU1; TRPML1-inducible cells, Ca2+ dye fluorescence, FDSS; hits give low values; inhibition of EC80 agonist-evoked calcium signal; in the data active means activity change below about -50%; inconclusive means about -30% to -50%; inactive means above about -30%;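 note: stimulus is agonist 54-4 at its EC80 concentration; % is set by controls: 0 for no effect and ±100 for the full control effect; compound concentration not given in the record; the text of the record puts the active cut at -80%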
#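 TRPML1-DL cells, Tet-induced overnight (~16 h, 37 °C) at 1,500 cells/well, were loaded with Ca8 no-wash dye plus quencher for 45-90 min at room temperature. Compounds were pinned during FDSS kinetic reading; agonist 54-4 at EC80 (4 uM final) then added.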
# PINK1 modulator: PINK1 expression modulation. PINK1 immunofluorescence, high-content cytometry, 24 h. Potency, µM (titrated, usually from 76.6 µM), inactives show at the highest dose activation (PINK1 increase), most hits filed as activators. 410,000 tested, 0.2% active. AID 624263; active = well fitted activation curve with a large enough effect; inconclusive = small, poorly fitted or top-dose-only effect; inactive = flat fitted curve, though single readings scatter; cell line not stated here;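 note: potency is the fitted concentration of half-maximal effect; % of control where 0% means no effect; nearly all actives have a fitted effect of over 65% in size; a mitochondrial uncoupler was the plate control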
#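 Cells are seeded, rested 12 hours, then given compound at five concentrations or DMSO for 24 hours. After fixation, blocking and antibody staining, PINK1 amount and mitochondrial localization are scored; CCCP serves as control.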
# TRPML1 agonist: human mucolipin-1 channel agonism; Q9GZU1; TRPML1-expressing cells, Ca2+ dye fluorescence, FDSS; host cell line not named in the record; reference of the full effect not given here; activation, % (concentration not given with the values); 410,000 tested, 0.12% active; AID 624414; in the data active = activation above about 50%; inconclusive = about 30% to 50%; inactive = below about 30%; note: 0% is about no effect; the text of the record puts the active cut at 80%
#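 Kinetic FDSS Ca2+ read in Tet-induced TRPML1-DL cells (ABD Ca8 dye plus quencher, 45-90 min RT loading): baseline, then compound, then 110 s agonist window; EC80 agonist 54-4 at 4uM final added afterwards for a 110 s antagonist window.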
# The depositor's hits bear a star; ? = inconclusive; . = not tested or not shown; & = joins results of further samples; [ ] = dose if it differs, or a comment.
SMILES,D2 potentiator,D2 agonist,Six1-Eya2 inh,TRPML1 inh,PINK1 modulator,TRPML1 agonist
CCOc1cccc(CC(=O)N2CCc3c([nH]c4ccccc34)C2c2ccc(C)cc2)c1OCC (stereo unspecified),.,.,.,16.9,0.1%,-0.3
O=C(O)C1CCC(CNS(=O)(=O)c2ccc(Cl)cc2)CC1 (stereo unspecified),4.9,2.2,-0.6,-1.4,0.7%,0.9
CCOC1=NN(c2ccccc2)C(=O)/C1=C\N(C)C,-1.2,-3.4,-2.3,-10.5,-0.4%,0.5
O=C1c2cccnc2C(Nc2cccc(F)c2)N1Cc1ccco1 (stereo unspecified),-3.3,-3.1,-1.1,13.3,-1.8%,-0.2
CNC(=S)Nc1ccc(Br)cc1,8.3,3.3,1.7,-2.7,-1.1%,-0.7
O=C(O)c1cn2c3c(ccc(Cl)c3c1=O)OCC2,5.5,-3.9,-3.8,-26.9,-2.0%,-0.2
CCCc1nn(-c2cc(Cl)ccc2OC)c2c1C(=O)CCC2,-3.1,1.2,-8.5,1.7,7.4%,0.1
Cc1cc(=O)oc2ccc(OC(C)C(=O)O)cc12 (stereo unspecified),7.8,-1.1,3.2,9.0,0.4%,0.3
CCc1ccccc1N1C(=O)CC(Sc2nccc(C)n2)C1=O (stereo unspecified),11.2,2.1,-0.3,.,0.8%,.
COc1ccc(CC(=O)OCC(=O)NC(=O)Nc2ccccc2F)cc1,-11.7,0.2,-0.5,0.9,-0.8%,-0.9
Cc1cnc(C(=O)OCC(=O)N2CC(C)CC(C)C2)cn1 (stereo unspecified),0.3,1.1,-0.8,-0.7,2.8%,2.6
Cc1nc2ccc(C(=O)N/N=C/c3ccccc3O)cc2[nH]1,-4.9,-4.0,-80.2*,3.2,0.3%,0.9
Cc1nccn1-c1c([N+](=O)[O-])c(=O)n(C)c2ccccc12,-15.5,2.8,-4.3,-5.0,-0.4%,0.2
Cc1ccccc1NC(=O)CCn1c(=O)oc2ccccc21,-2.6,-4.8,-0.2,1.2,-0.4%,-0.1
CC(C)(C)n1nc2c(c1NC(=O)COc1ccc3ccccc3c1)CS(=O)C2 (stereo unspecified),-5.3,-0.3,-15.9,-8.9,1.5%,-0.6
COc1ccccc1-n1c(SCC(=O)N2CCOCC2)nc2cccnc21,-3.3,-4.5,-13.3,5.7,2.3%,-0.6
CC(C)CCn1c(N2CCCC2)nc2c1c(=O)[nH]c(=O)n2C,-1.8,-9.4,-27.1,-1.6,4.9%,-0.1
O=C(Cn1cccn1)N1CCCC(N2CCN(c3ccccc3F)CC2)C1 (stereo unspecified),10.2,-7.3,8.4,-6.0,-0.3%,0.1
O=C(CCSc1nc(-c2ccco2)cc(C(F)(F)F)n1)NCC1CCCO1 (stereo unspecified),0.1,-1.0,3.5,-6.9,0.9%,0.2
CC(=O)Nc1ccc(NC(=O)N2CCOCC2)cc1,0.3,-0.1,-3.3,-1.6,0.6%,-0.7

# Sorted by SMILES length (descending): some entries from above
SMILES,D2 potentiator,D2 agonist,Six1-Eya2 inh,TRPML1 inh,PINK1 modulator,TRPML1 agonist
O=C(Cn1cccn1)N1CCCC(N2CCN(c3ccccc3F)CC2)C1 (stereo unspecified),10.2,-7.3,8.4,-6.0,-0.3%,0.1
COc1ccccc1-n1c(SCC(=O)N2CCOCC2)nc2cccnc21,-3.3,-4.5,-13.3,5.7,2.3%,-0.6
Cc1cc(=O)oc2ccc(OC(C)C(=O)O)cc12 (stereo unspecified),7.8,-1.1,3.2,9.0,0.4%,0.3

# (continued)
SMILES,D2 potentiator,D2 agonist,Six1-Eya2 inh,TRPML1 inh,PINK1 modulator,TRPML1 agonist
O=C(Nc1nnc(-c2ccco2)s1)C1CCN(S(=O)(=O)c2ccc(Cl)cc2)CC1,2.9,-1.1,-2.3,4.9,5.8%[38.3 µM],-0.5
COc1ccc(C(=O)NC(=S)SCC(=O)O)cc1,-1.1,-3.5,21.9,12.3,2.1%,0.8
CCCN1CCn2c3c(c4cc(Br)ccc42)CCCC31 (stereo unspecified),-9.4,2.7,-14.2,26.6,5.5%,1.4
COc1ccccc1OCC(=O)NCC1(N2CCOCC2)CCCCC1,.,.,.,11.3,2.3%,-0.8
COc1ccccc1NC(=O)COC(=O)/C=C/c1ccccc1[N+](=O)[O-],4.7,2.6,-24.5,-1.6,0.0%,-0.2
COc1cccc(C2C3=C(N=C4SCC(=O)N42)c2ccccc2CC3)c1OC (stereo unspecified),-7.6,-0.8,-11.8,4.8,4.7%,0.6
CC(=O)Oc1ccc2c(=O)c(Oc3ccccc3)c(C)oc2c1OC(C)=O,15.4,6.5,-14.9,27.3,0.4%,1.7
COc1cc([N+](=O)[O-])ccc1NC(=O)CCCOc1ccc(C)cc1,-3.8,0.2,-14.1,-6.9,0.4%,0.3
COC(=O)c1ccccc1NC(=O)Cn1ccnc1,9.2,-0.8,-1.3,-5.9,0.8%,-0.8
CN(C)S(=O)(=O)Oc1ccsc1C(=O)Nc1ccccc1Cl,-4.4,-1.4,10.2,4.4,-0.8%,1.4
Cc1ccc(/C(C#N)=C\c2ccc(N3CCOCC3)o2)cc1,-15.7,-0.9,-2.3,20.5,?,5.7
Cc1ccc2nc(SCC(=O)Nc3cccc4ccccc34)nc(=O)n2c1,-17.9,-1.5,-4.0,0.6,-2.0%,-0.5
N#C/C(=C/c1cn(CC(=O)O)c2ccccc12)c1ccc(F)cc1,-13.1,-3.2,-20.4,-9.8,0.4%,-0.6
Cn1cc(S(=O)(=O)N2CCCC2)cc1C(=O)NCc1ccc(Cl)cc1,-1.1,-1.5,6.3,0.7,4.0%,-0.2
CCN(CC)S(=O)(=O)c1cc(C(=O)OC(C)C(=O)NCc2ccco2)ccc1C (stereo unspecified),-0.7,2.5,-5.5,-6.9,2.6%,1.5
COc1ccc(S(=O)(=O)N2CCOCC2)cc1NC(=O)CN1C(=O)CN(C)C1=O,-0.8,1.2,6.8,3.5,-0.9%,-0.2
C=Cc1ccc(CSc2nc(-c3ccc(Cl)cc3)nc3c2Cc2c(CO)cnc(C)c2O3)cc1,.,.,.,-12.7,0.0%,0.3
Cc1ccc(C2CC(=O)NC3=C2C(=O)CCC3)cc1Br (stereo unspecified),-37.8,-2.6,-5.1,22.8,0.5%,-0.5
CCCn1c(SCC(=O)Nc2ccc(NC(=O)CC)cc2)nc2c1c(=O)n(C)c(=O)n2C,-3.3,-3.5,-8.4,13.1,0.5%,-0.1
COc1cc2c(cc1O)CC[C@@H]1[C@@H]2CC[C@]2(C)[C@@H](O)CC[C@@H]12,7.8,0.0,-12.5,-0.5,1.0%&1.0%,0.0&-0.5
O=C(NC(=S)Nc1ccc(O)cc1)c1cncc(Br)c1,-16.1,-6.8,-2.3,-9.9,0.1%,-1.1
CNC(=S)Nc1cccc(Cl)c1C,-2.9,2.4,9.8,10.1,1.6%,-0.7
C=CC[C@H](CC(=O)NCCO)C(=O)NC[C@@H](OC(=O)[C@@H](CC=C)Cc1ccc(F)cc1)c1ccccc1,-8.6,-2.7,1.7,10.6,1.3%,0.5
CC(NC(=S)Nc1ccc(F)cc1)C(c1cccs1)N1CCOCC1 (stereo unspecified),-1.1,-4.9,-2.7,0.3,1.2%,-0.7
COc1ccc(CNC(=O)c2ccc(C)o2)cc1,-6.5,1.0,-2.1,-9.2,-1.2%,0.8
OCc1nnn(-c2ccccc2)c1CO,-20.4,-3.6,9.5,4.2,0.1%,1.7
CCc1ccc(C(=O)CN2C(=O)NC3(CCc4ccccc43)C2=O)cc1 (stereo unspecified),-4.1,-7.6,0.7,-0.4,-1.5%,0.6
CCOc1ccc2nc(SCC(=O)NCc3ccc(S(N)(=O)=O)cc3)[nH]c2c1,-0.4,2.9,2.8,4.3,-1.2%,0.0
COc1ccc(OC)c(/C=N/NC(=O)c2[nH]ncc2Br)c1,-3.3,-5.3,7.4,-0.5,4.4%,-0.1
CNC(=O)CSc1nnc(C(C)C)n1C,-7.0,-1.7,2.0,-9.0,2.6%,-0.6
COC(=O)c1ccc(N2CCN(CCNC(=O)Nc3ccc(OC)cc3)CC2)cc1,-4.4,0.2,-7.4,22.8,4.4%,0.0
Cc1cc(/C=N/O)c(C)n1-c1ccccc1,-4.8,2.9,-12.4,-4.9,-0.8%,-0.7
COc1ccccc1CNC(=O)c1cc(S(=O)(=O)N2CCOCC2)cn1C,-6.3,-5.5,5.8,-0.2,0.1%,-0.3
C=CCn1c(SCc2n[nH]c(=S)n2-c2ccccc2)nnc1-c1ccccc1,-1.8,7.7,9.2,11.2,0.7%,0.9
CCOc1ccc(OCC(=O)NCCS(=O)(=O)N2CCN(c3ccc(OC)cc3)CC2)cc1,.,.,.,7.7,-0.9%,1.1
COc1ccc(N(CN2C(=O)c3ccccc3C2=O)C(=O)COc2ccc(Cl)cc2Cl)cc1,-2.5,-4.7,-3.2,-1.2,-2.0%,-0.4
Cn1c(C(=O)N2CCCC(C(=O)N3CCN(c4ccccc4)CC3)C2)cc2sccc21 (stereo unspecified),.,.,.,26.2,3.4%,-0.1
CC(C)(C)c1ccc(O)c(/C=N\O)c1,-9.0,-2.1,1.9,18.7,0.3%,-1.2
COc1ccccc1C(=O)N/N=C(\C)CC(=O)Nc1ccc2c(c1)OCCO2,-7.8,-4.3,-27.6,2.6,4.1%,0.2
Cc1ccc(CCNC(=O)c2cc3n(n2)CCCN(Cc2ccc(C)cc2)C3=O)cc1,.,.,.,3.7,5.2%,0.5
CC(C)C(=O)Nc1ccc(C(=O)N2CCCCCC2)cc1,-2.0,-2.6,0.7,0.1,.,-0.3
Cc1ccc(NC(=O)CN2C(=O)COc3ccc(S(=O)(=O)N4CCCCCC4)cc32)cc1C,.,.,.,14.8,-0.2%,1.4
COc1ccc(CCC(C)Nc2ccccc2F)cc1 (stereo unspecified),0.1,-1.0,37.1,-6.0,4.2%,2.4
CCc1ccc(NC(=O)CCC(=O)Nc2nnc(C(F)(F)F)s2)cc1,-8.6,-1.6,2.3,7.9,2.5%,-0.6
NC(=O)NC(=O)CSc1nnc(-c2ccc(Cl)cc2)n1CC1CCCO1 (stereo unspecified),-4.3,2.9,10.0,-10.0,-0.3%,0.7
CN(O)/C=C/C(=O)c1ccc(Br)cc1,-14.6,-3.9,4.5,-7.5,6.3%,-0.3
CC(=O)N1CCN(C(=O)c2ccc(Cl)c(S(=O)(=O)N3CCc4ccccc43)c2)CC1,-10.3,-2.6,0.8,6.6,4.0%,0.3
O=C1/C(=C/c2ccccc2Cl)SC(=S)N1CCCC(=O)N(CCO)c1ccccc1,6.9,-20.8,-20.0,5.6,0.7%,-0.2
O=C(NC1CC2CCCC(C1)N2C(=O)Nc1ccccc1F)C1CC1 (stereo unspecified),1.6,-1.1,-1.0,-6.5,-0.7%,-0.2
O=C(O)c1ccc(NS(=O)(=O)/C=C/c2ccccc2)cc1O,-8.2,-1.6,-0.6,-7.2,-1.6%[38.3 µM],0.3
CCCCC1OC2(C)OC(=N)C1(C#N)C(C#N)(C#N)C2c1ccccc1 (stereo unspecified),19.3,0.5,9.5,25.1,-1.6%,0.9
CCCCc1ccc(NC(=O)COCC)cc1,-19.6,-3.6,33.9,-24.0,-1.0%,3.3
